Ecoli growth – E. coli growth inhibition | Escherichia coli growth, OD600, 23 h; stronger effect = lower value | OD600 absorbance (no concentration beside the values) | hit rate 0.21% among 330,000;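 active = OD600 absorbance below the run mean of sample wells minus 3.6 SD, in any replicate, cut at about 0.56 in these data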;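 note: stock transfer was 300 nL into about 60 µL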
* = called active by the depositor; & = joins results of further samples.

SMILES	Ecoli growth
CC(C)=CCC[C@](C)(O)C1CC[C@]2(C)C1C(O)CC1[C@@]3(C)CCC(OC4OC(CO)C(O)C(O)C4OC4OC(CO)C(O)C(O)C4O)C(C)(C)C3CC[C@]12C (stereo partly drawn)	0.691
CC(C)(C)OC(=O)NCCCCC(NC(=O)c1nc[nH]c1C(=O)NC(c1ccccc1)c1ccccc1)C(=O)OC(C)(C)C (stereo not drawn)	0.731
CCOC(=O)CC1c2ccccc2S(=O)(=O)N1Cc1cccc(C(F)(F)F)c1 (stereo not drawn)	0.699
CC(C)(C)NC(=O)C=Cc1ccc(C(F)(F)F)cc1	0.68
CN1CC2C(c3ccc(C(F)(F)F)cc3)C3(c4ccc(C#N)cc4)CC2(C3)C1c1ccccc1 (stereo not drawn)	0.728
O=C(NCc1ccccn1)C1CC1C(NP(=O)(c1ccccc1)c1ccccc1)c1ccccc1 (stereo not drawn)	0.672&0.646
CC(C)(C)C1CCC(=O)N(C(CN=[N+]=[N-])Cc2ccccc2)CC1 (stereo not drawn)	0.713
COc1ccc(S(=O)(=O)N(C)CC2Oc3ccc(NS(=O)(=O)c4c(C)noc4C)cc3C(=O)N(C(C)CO)CC2C)cc1 (stereo not drawn)	0.661
CNC(=O)C1OC(n2cnc3c(NCc4cccc(I)c4)nc(Cl)nc32)C(O)C1O (stereo not drawn)	0.69
C=CCC(CC(=O)NC(CO)Cc1ccccc1)C(=O)NC(C)COC(=O)C(CC=C)Cc1ccc(F)cc1 (stereo not drawn)	0.723&0.728&0.724&0.712
COc1ccccc1CN1C(CC(=O)O)c2ccccc2S1(=O)=O (stereo not drawn)	0.703
C=CCN1c2ccccc2[C@]23CC(C(=O)OC)N(C(=O)NCCC)C2=NC(C(=O)OC)=C(C(=O)OC)C13 (stereo partly drawn)	0.731
C=C(C)C(=O)Nc1cccc(C2=NOC3(C2)CC(C(N)=O)N(C(=O)c2ccccc2C(=O)c2ccccc2)C3)c1 (stereo not drawn)	0.675
Cc1ccc(S(=O)(=O)N2C(c3ccc(Cl)cc3)CC=C(C(=O)O)C2c2ccc(F)cc2)cc1 (stereo not drawn)	0.68
CCC1=C(OC(=O)N(CC)CC)N2C(=O)OC(=NCC(=O)OC)[C@]2(C)C2C1=CCC1C(=O)N(CC)C(=O)C12 (stereo partly drawn)	0.675
CCCC=C(CCC)C(NC(=O)Cc1ccccc1)c1ccc(C(=O)OC)cc1 (stereo not drawn)	0.711
CC1COC(=O)C(Cc2ccc(F)cc2)CC=CCC(CC(=O)N(CCO)Cc2ccccc2)C(=O)N1 (stereo not drawn)	0.676&0.705&0.698&0.691
C=C1CCN(C(C(=O)Nc2ccc(OC)cc2)C(C)C)S(=O)(=O)c2ccccc21 (stereo not drawn)	0.687
CC1COC(=O)C(CC(=O)OC(C)(C)C)CC=CCC(CC(=O)NCCO)C(=O)N1 (stereo not drawn)	0.642&0.678&0.709&0.724
CCOC(=O)C1C2COc3ccc(C)cc3C2N2C(=O)c3cc(F)ccc3NC(=O)[C@@]12C (stereo partly drawn)	0.697
COc1ccc(S(=O)(=O)NC(Cc2ccc(Cl)cc2)C(=O)N2CC[C@@]3(O)CCCCC3C2)cc1 (stereo partly drawn)	0.67
C[C@@]12C(=O)N(c3cccc(Cl)c3)C(=O)N1C1c3ccccc3OCC1C2c1ccccc1 (stereo partly drawn)	0.744
COc1ccc(N=C2SC(=Cc3ccc(C)o3)C(=O)N2CC(C)C)cc1	0.727
CC(=CC(=O)C(F)(F)F)Nc1ccc(C(F)(F)F)cc1	0.696
NCCCCC1CN=C(N)N1CCc1cccc2ccccc12 (stereo not drawn)	0.713
COC(=O)C1=C(C)N(Cc2ccccc2)C(=NCc2ccc3c(c2)OCO3)NC1c1ccccc1 (stereo not drawn)	0.624
CCOC1OC(C(=O)NCc2ccccc2)=CC(C)C1CCCO (stereo not drawn)	0.672&0.733
COc1ccc(C2C=CCN(C(=O)C3CCCCC3)CC(=O)N2Cc2ccc(F)cc2)cc1 (stereo not drawn)	0.693
COCCN1C(=O)NC(c2cccc(F)c2)C(C(C)=O)=C1C (stereo not drawn)	0.646
C=CCC(CC(=O)NCCO)C(=O)NC(C)COC(=O)C(CC=C)CC(=O)OC(C)(C)C (stereo not drawn)	0.704&0.667
C=CCC(CC(=O)N(CCO)Cc1ccccc1)C(=O)NC(COC(=O)C(CC=C)Cc1ccc(F)cc1)Cc1ccccc1 (stereo not drawn)	0.714&0.716&0.729&0.731
O=C1NC(c2ccccc2)COC(=O)C(Cc2ccc(F)cc2)CC=CCC1CC(=O)N(CCO)Cc1ccccc1 (stereo not drawn)	0.669&0.69&0.709&0.692
CCCCN1CC(=O)N2C3c4cc(C)ccc4OCC3C(C(=O)OCC)[C@]2(C)C1=O (stereo partly drawn)	0.683
CCC(C)Sc1ccc(C2N[C@@](CC(C)C)(C(=O)OC)C3C(=O)N(C)C(=O)C23)cc1 (stereo partly drawn)	0.706
CC(NC(=O)c1nc[nH]c1C(=O)NCc1ccccc1)C(=O)OCc1ccccc1 (stereo not drawn)	0.683
CC1CN(C(C)CO)C(=O)c2cc(NC(=O)Cn3cnnn3)ccc2OC1CN(C)C(=O)Nc1ccc(C(F)(F)F)cc1 (stereo not drawn)	0.613
O=C(NC(=Cc1cccnc1)C(=O)N1CCOCC1)c1ccccc1	0.7
C=C1CCN(C(CC(C)C)C(=O)NCc2cc(OC)c(OC)c(OC)c2)S(=O)(=O)c2ccccc21 (stereo not drawn)	0.665
Cn1c2c(c(=O)n(C)c1=O)C1c3c(ccc4ccccc34)OCC1CO2 (stereo not drawn)	0.722
Cc1sc(NC(=O)C=Cc2ccco2)c(C(=O)OC(C)C)c1C	0.723
CC(C)NC(=O)N(C)CC1Oc2ccc(NS(=O)(=O)c3ccc(F)cc3)cc2C(=O)N(C(C)CO)CC1C (stereo not drawn)	0.692
NC(=NOC(=O)c1cccc2ccccc12)c1ccc(Br)cc1	0.704
CC=C(C)C(=O)OC1c2c(ccc3ccc(=O)oc23)OC(C)(C)C1OC(C)=O (stereo not drawn)	0.683
O=C(CNC(=O)C(=Cc1ccc(F)cc1)NC(=O)c1ccccc1)OCc1ccccc1	0.697
CCN1CC2C3C(=O)N(Cc4ccccc4)C(=O)C3[C@](C)(C1=O)N2C(=O)c1ccccc1 (stereo partly drawn)	0.631
CC1OC(OC2C(Oc3cc(O)c4c(c3)OC(c3ccc(O)cc3)CC4=O)OC(CO)C(O)C2O)C(O)C(O)C1O (stereo not drawn)	0.667&0.662
CC(=O)C1=NN(c2ccccc2)C2(SC(=Cc3ccccc3)C(=O)N2c2ccccc2)S1 (stereo not drawn)	0.751
C[C@@]12C(=O)N(c3cccc(F)c3)C(=O)N1C1c3ccccc3OCC1C2c1ccccc1 (stereo partly drawn)	0.737
O=S(=O)(C=Cc1ccccc1)N1CCN(Cc2ccccc2)CC1	0.677
CCN1C(=O)C2C(c3ccc(C)cc3)N3C(=O)N(c4cccc(Br)c4)C(=O)[C@@]3(CC)C2C1=O (stereo partly drawn)	0.702
C=CCC(Cc1ccc(F)cc1)C(=O)OCC1CCCN1C(=O)C(CC=C)CC(=O)NCCO (stereo not drawn)	0.71&0.684&0.689
CCc1ccccc1NC(=O)NC(C(=O)O)C(C)CC (stereo not drawn)	0.697
CN1CCCC1CCNC(=O)c1c(-c2ccsc2)sc2ccccc12 (stereo not drawn)	0.679
COc1ccccc1N1CCN(C(=O)c2cnn3cccnc23)CC1	0.713
CCN1C(=NCCc2ccc(Br)cc2)NC(c2ccccc2)C(C(=O)OC)C1C (stereo not drawn)	0.654
COC(=O)c1ccc(-c2ccc(C3C4C=CCC(C)C4C(=O)N3Cc3ccccc3)c(F)c2)cc1 (stereo not drawn)	0.729

Carrying on:
SMILES	Ecoli growth
COC(CC=CC(O)COCc1ccccc1)OC (stereo not drawn)	0.66&0.674&0.676&0.661
O=C1CC2c3c(cccc3CN1Cc1ccccc1F)CC(O)C2O (stereo not drawn)	0.691
CN1CC2C3C(=O)N(C)C(=O)C3[C@](C)(C1=O)N2C(=O)c1ccc(Br)cc1 (stereo partly drawn)	0.674
COC(CC=CC(O)C(C)OCc1ccccc1)OC (stereo not drawn)	0.639&0.709&0.675&0.644&0.643
CCOC(=O)C(N=Nc1sc(C(=O)OCC)c(C)c1C(=O)OCC)=C(C)O	0.745
O=C(NCc1nc2ccccc2[nH]1)C1=CC(c2ccc(Br)cc2)CC(OCCCCO)O1 (stereo not drawn)	0.685
O=C1C=C(c2ccc(-c3ccccc3)c(F)c2)CC(c2ccc(Cl)cc2)C1 (stereo not drawn)	0.726
COC(=O)c1ccc(C23CC4(C2)C(CN(Cc2cccnc2)C4c2ccccc2)C3c2ccccc2)cc1 (stereo not drawn)	0.706
C#CCNC(=O)C(Cc1ccc(C(=O)c2ccccc2)cc1)NC(=O)OC(C)(C)C (stereo not drawn)	0.699
COC(=O)[C@]1(S(=O)(=O)c2ccccc2)CC2ON=C(c3ccc(OC)cc3)C2C1 (stereo partly drawn)	0.675
OCCC1CC(O)C(O)[C@]2(CCCc3ccccc3O2)O1 (stereo partly drawn)	0.694&0.72&0.671
CC(C)(C)NC(=O)C=Cc1cccc(C(F)(F)F)c1	0.689
CCOC(=O)O[C@]1(C(=O)COC(=O)CC)CCC2C3CCC4=CC(=O)C=C[C@]4(C)C3C(O)C[C@@]21C (stereo partly drawn)	0.675
CC1CN(C(C)CO)C(=O)c2cccc(NS(=O)(=O)c3cccs3)c2OC1CN(C)CC1CCCCC1 (stereo not drawn)	0.709
CC=C(C)C(=O)OC1c2c(ccc3ccc(=O)oc23)OC1C(C)(C)OC(C)=O (stereo not drawn)	0.659
COC(=O)CC1c2cc(F)cc(F)c2S(=O)(=O)N1C1CCN(Cc2ccccc2)CC1 (stereo not drawn)	0.672
CCCCN1C(N)=NCC1c1ccccc1 (stereo not drawn)	0.691
COC(=O)c1ccc(C2C=C(C(=O)O)OC(OCc3ccc(CO)cc3)C2)cc1 (stereo not drawn)	0.666
CCOC1OC(C(=O)O)=CC(c2ccccc2)C1CCCO (stereo not drawn)	0.695&0.728
COc1cccc(C2CC=C(C(=O)O)C(c3cccc(Cl)c3)N2S(=O)(=O)c2ccc(C)cc2)c1 (stereo not drawn)	0.669
COc1ccc2c(c1)OCC1C2N2C(=O)CNC(=O)[C@@]2(C)C1c1ccccc1 (stereo partly drawn)	0.675
CCOC(=O)C=C1CN(C(C)c2ccccc2)S(=O)(=O)c2ccccc21 (stereo not drawn)	0.695
CC1(C)c2[nH]c3ccccc3c2CC2C(=O)N(Cc3ccc(F)cc3)C(=O)N21 (stereo not drawn)	0.66&0.698
CC1=C(CC(=O)O)c2cc(F)ccc2C1=Cc1ccc(S(C)=O)cc1 (stereo not drawn)	0.692&0.673
Cc1ccc(CC2SC(=Nc3ccccn3)NC2=O)cc1 (stereo not drawn)	0.688
[N-]=[N+]=NCC(Cc1ccccc1)N1CCC(OCc2ccccc2)CCC1=O (stereo not drawn)	0.676
COc1ccc(CCNC(=O)C(=Cc2cccnc2)NC(=O)c2ccccc2)cc1OC	0.723
CCC1Cc2cc(O)ccc2C2=C1c1ccc(O)cc1CC2CC (stereo not drawn)	0.684
COc1ccc(C2C=CCN(C(=O)Oc3ccccc3)CC(=O)N2Cc2ccc(F)cc2)cc1 (stereo not drawn)	0.67
COc1ccc(CC(N)=NOC(=O)Cc2ccccc2)cc1OC	0.695
CC1CCC[C@@]2(O1)OC(CCO)CC(O)C2O (stereo partly drawn)	0.667&0.64&0.701&0.646&0.665&0.695&0.682&0.683
COc1cccc(CNS(=O)(=O)C=Cc2ccc(OC)c(OC)c2)c1	0.701
Cc1ccc(C(=O)NCCN2C3=NCC(Cc4ccccc4)N3CC2Cc2ccc(O)cc2)cc1Br (stereo not drawn)	0.642
Cc1ccccc1C=CC(=O)NCC(=O)N1CCC(N(C)C2CCCCC2C)CC1 (stereo not drawn)	0.712
O=c1c2c(O)cc(O)cc2oc2c(O)ccc(OC3OC(CO)C(O)C(O)C3O)c12 (stereo not drawn)	0.71
O=C1C(Cc2ccccc2)NCCCCC(c2ccc(Cl)cc2)N1Cc1ccc(Cl)cc1 (stereo not drawn)	0.72&0.632
COCCNC(=O)C1CC1C(NP(=O)(c1ccccc1)c1ccccc1)c1ccccc1 (stereo not drawn)	0.624
Cc1ccc(CN2C(Cc3ccccc3)C(=O)CS2(=O)=O)cc1 (stereo not drawn)	0.663
COC(=O)C(CCSC)NC(=O)Nc1cc(C)ccc1C (stereo not drawn)	0.672
COc1ccc(OC2C=CC(c3ccccc3)OC2COC(=O)CCC(C)=NOCC(O)COCc2ccco2)cc1 (stereo not drawn)	0.704

In a second layout: four of the compounds above.
Cc1ccccc1C=CC(=O)NCC(=O)N1CCC(N(C)C2CCCCC2C)CC1 (stereo not drawn)
- Ecoli growth = 0.712

O=c1c2c(O)cc(O)cc2oc2c(O)ccc(OC3OC(CO)C(O)C(O)C3O)c12 (stereo not drawn)
- Ecoli growth = 0.71

O=C1C(Cc2ccccc2)NCCCCC(c2ccc(Cl)cc2)N1Cc1ccc(Cl)cc1 (stereo not drawn)
- Ecoli growth = 0.72&0.632

COCCNC(=O)C1CC1C(NP(=O)(c1ccccc1)c1ccccc1)c1ccccc1 (stereo not drawn)
- Ecoli growth = 0.624

(listing goes on)
SMILES	Ecoli growth
CC(=Cc1ccccc1)C(=O)NCc1ccco1	0.639
CC(C)CC(NC(=O)OC(C)(C)C)C(=O)N1CCC(C(=O)O)CC1 (stereo not drawn)	0.709
C=C1CCN(C(C(=O)NCc2cc(OC)c(OC)c(OC)c2)C(C)C)S(=O)(=O)c2ccccc21 (stereo not drawn)	0.688
CC(C)C(CN(N=O)C(Cc1ccccc1)CN(C)N=O)N(CCc1ccccc1)N=O (stereo not drawn)	0.706

Screening results (PubChem BioAssay)

The list is partial (hit frequency here may not be typical).
